Source: PubChem
eIF4H FP inh: inhibitors of RNA binding by human eIF4H | 290,000 tested, 0.94% active | AID 2012 | eIF4H fluorescence polarization binding assay | Q15056 | inhibition, % at 35 µM;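 active = 50% or more with normal probe brightness, or confirmed in later tests; inconclusive = above 50% with abnormal brightness, or retests that disagree; inactive = below 50% or failed in later tests; about a fifth of its hits are not listed in these tables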;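 note: calls also rest on retests at 20 µM and on dose response follow-up; 0% = protein and probe with vehicle and 100% = probe without protein; strong numbers were not always called active; many hits fall short of the cut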
HIV Env fusion: blocks HIV Env-driven cell-cell fusion; HeLa-JRFL Env/CEM21 cell fusion, luciferase; 360,000 tested, 1.1% active; inhibition, % at 12.3 µM; AID 651610;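 active = mean replicate inhibition score of at least 50 and every replicate individually at or above 50; inconclusive = only one of the two criteria met; inactive = mean below 50 and not all replicates reaching 50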;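 note: 0% = plate neutral controls and 100% = maraviroc near 300 nM; one replicate is shown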
Rce1 inhib: yeast Ras-converting enzyme inhibition; Q03530; calls only; 290,000 tested, 0.27% active; yeast membranes, quenched prenylated peptide cleavage fluorescence; AID 2563;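 active = fall in fluorescence gain of 50% or more versus controls, with final raw signal at or below 3038400; inconclusive = same 50% fall but final raw signal above 3038400; inactive = fall in fluorescence gain under 50%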;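 note: plate controls were neutral control wells for no effect and wells lacking membranes for full effect; tested at 10 µM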
Target sequence (Q03530 whole entry, looked up): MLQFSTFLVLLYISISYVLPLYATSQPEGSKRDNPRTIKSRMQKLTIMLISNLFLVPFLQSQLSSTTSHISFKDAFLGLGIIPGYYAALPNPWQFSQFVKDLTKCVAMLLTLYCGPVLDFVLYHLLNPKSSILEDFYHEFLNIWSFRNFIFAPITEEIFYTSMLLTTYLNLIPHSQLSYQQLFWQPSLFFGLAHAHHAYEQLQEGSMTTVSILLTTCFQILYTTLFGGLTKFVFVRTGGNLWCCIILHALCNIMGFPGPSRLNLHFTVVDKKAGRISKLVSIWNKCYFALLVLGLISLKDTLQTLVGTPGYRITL
PABP polyA inh: PABP-poly(A) binding inhibition | AID 2014 | inhibition, % at 35 µM | 290,000 tested, 1% active | PABP-poly(A) RNA binding, fluorescence polarization;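 active = 50% or more with normal probe brightness, or confirmed in later tests; inconclusive = above 50% with abnormal brightness, or retests that disagree; inactive = below 50% or failed in later tests; about a fifth of its hits are not listed in these tables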;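 note: calls also rest on retests at 20 µM and on dose response follow-up; controls were probe without protein and protein plus probe with vehicle; some compounds called inactive have numbers as strong as hits; many hits fall short of the cut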
CSC inhib: cancer stem cell inhibition; cancer stem cell-like cells viability, luminescence; inhibition, % at 7.5 µM; 300,000 tested, 1.1% active;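 active = mean at 75% or more and at least half the replicates too; inconclusive = mean and replicates disagree; tested in HMLE shEcad cells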;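 note: 0% = median of negative and 100% = median of positive control wells; the first replicate is given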
MT1-MMP act inh: MT1-MMP (human) activation inhibition; GFP/RFP ratio change, % at 20 µM; HT1080 RFP-PRO-GFP cells, GFP/RFP ratio fluorescence, overnight; percent of plate control window, DMSO zero; 360,000 tested, 0.061% active;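 active = GFP/RFP ratio change of at least 30% with cell ATP level not reduced by more than half and red fluorescence within 50% of control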; note: strong numbers were not always called active
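Assay system: HT1080 RFP-PRO-GFP cells | Dosing: 20 µM single dose, 1% DMSO | Incubation: Cells overnight before dosing, compound overnight, 37 °C, 5% CO2 | Evaluation: GFP/RFP fluorescence ratio | Control set: DMSO-only wells and HT1080 RFP-L50D-GFP cell wells as references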
Yeast UUG start: alters start codon recognition fidelity in yeast | 350,000 tested, 0.13% active | S. cerevisiae UUG-firefly luciferase reporter, luminescence/redox ratio | activity score, % at 18.7 µM;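 active = replicate mean at a twofold rise or more, about +100% in these data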;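 note: firefly luciferase made from a UUG start codon reports start codon fidelity; reporter light over untreated wells divided by growth signal over untreated wells; some hits fall short of that in this replicate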
eIF4H FP inh retest: recorded beside eIF4H FP inh, whose call it bears; inhibition, %; compound at 20 µM; confirmation average;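 mean of two retest wells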
MT1-MMP act inh RFP: further read-out of MT1-MMP act inh, marked with its call; RFP signal change, %; measured here: RFP expression control read;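 0 = vehicle wells; hits needed this value within 50% of zero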
Starred values were filed as active, the others as inactive.

For CC1(C)Cc2ccccc2-c2nnc(-c3ccc4ccccc4n3)n21 the results were eIF4H FP inh 8, PABP polyA inh 8, CSC inhib -16, MT1-MMP act inh -7, Yeast UUG start -19 and MT1-MMP act inh RFP -10.
Screening Cc1ccc2cc(C#N)c(NCCNC(=O)C3CC3)nc2c1C returned eIF4H FP inh 2, HIV Env fusion 113*, Rce1 inhib inactive, PABP polyA inh 9, CSC inhib -4, MT1-MMP act inh 3, Yeast UUG start -1 and MT1-MMP act inh RFP -18.
For Cc1cc(Cl)ccc1NC(=O)CN1C(=O)CSc2ccc(S(=O)(=O)N3CCOCC3)cc21 the results were HIV Env fusion 0, Rce1 inhib inactive, CSC inhib -5, MT1-MMP act inh 1 and MT1-MMP act inh RFP 0.
`CCN1CCN(c2nc(-c3ccccc3Cl)nc3ccccc23)CC1` gave eIF4H FP inh -4, HIV Env fusion -5, Rce1 inhib inactive, PABP polyA inh 38, CSC inhib -7, MT1-MMP act inh -4, Yeast UUG start -5 and MT1-MMP act inh RFP 1.
`COCCCNC(=O)C1CCN(S(=O)(=O)c2c(C)noc2/C=C\c2ccc(OC)cc2)CC1` gave eIF4H FP inh -8, HIV Env fusion 13, PABP polyA inh 7, CSC inhib -9, MT1-MMP act inh 3, Yeast UUG start -9 and MT1-MMP act inh RFP -1.
`CCN(C(=O)COC(=O)CNC(=O)c1ccccc1C)C1=CCCCC1` gave HIV Env fusion -10, MT1-MMP act inh 2, Yeast UUG start -17 and MT1-MMP act inh RFP 3.
Screening COc1ccc(CNC(=O)[C@@H](NC(=O)C2CCN(C(=O)[C@@H](N)CC(C)C)CC2)C(C)C)cc1 returned eIF4H FP inh 10, Rce1 inhib inactive, PABP polyA inh 1, CSC inhib -9, MT1-MMP act inh 0, Yeast UUG start -8 and MT1-MMP act inh RFP 5.
`CCOc1ccc(NC(=O)NC(C)c2ccc3c(c2)OCO3)cc1` (stereo unspecified) gave eIF4H FP inh 5, HIV Env fusion -2, Rce1 inhib inactive, PABP polyA inh -6, CSC inhib -8, MT1-MMP act inh 1, Yeast UUG start -23 and MT1-MMP act inh RFP 3.
`COc1ccc(OC)c(/C=N/NC(=O)CSc2nnc(C)n2-c2ccccc2)c1` gave eIF4H FP inh 18, Rce1 inhib inactive, PABP polyA inh 10, CSC inhib -6 and Yeast UUG start -11.
CC1CC(=O)Nc2ccccc2N1C(=O)CN1CCN(C=O)CC1 (stereo unspecified) was read as eIF4H FP inh 8, HIV Env fusion 3, Rce1 inhib inactive, PABP polyA inh inconclusive, CSC inhib -8, MT1-MMP act inh 0 and MT1-MMP act inh RFP 3.
For COc1cc2[nH]c(=O)n(CCC(=O)N3CCc4ccccc4C3)c(=O)c2cc1OC the results were eIF4H FP inh -5, HIV Env fusion -60, Rce1 inhib inactive, PABP polyA inh 2, CSC inhib -8, MT1-MMP act inh -1 and MT1-MMP act inh RFP -4.
For N#Cc1ccc(-c2ccc(F)cc2)nc1SCC(=O)Nc1sc2c(c1C#N)CCC2 the results were eIF4H FP inh 86, HIV Env fusion -16, Rce1 inhib inactive, PABP polyA inh inconclusive, CSC inhib 19, MT1-MMP act inh -101, Yeast UUG start -16, eIF4H FP inh retest -5 and MT1-MMP act inh RFP -1.
Screening CCCn1c(=O)c2ccccc2n2c(Sc3nnnn3-c3ccccc3)nnc12 returned eIF4H FP inh -4, HIV Env fusion -9, Rce1 inhib inactive, PABP polyA inh -2, CSC inhib 8, MT1-MMP act inh 6, Yeast UUG start 0 and MT1-MMP act inh RFP 8.
`C=CCOc1ccc(C(=O)c2ccccc2)c(OCC(=O)NC2(C#N)CCCC2)c1` gave eIF4H FP inh -6, HIV Env fusion -2, Rce1 inhib inactive, PABP polyA inh -4, CSC inhib 3, MT1-MMP act inh -6, Yeast UUG start -12 and MT1-MMP act inh RFP -5.
For O=C1c2oc3ccccc3c(=O)c2C(c2cccnc2)N1CCCN1CCOCC1 (stereo unspecified) the results were eIF4H FP inh -9, Rce1 inhib inactive, PABP polyA inh -10, MT1-MMP act inh 0, Yeast UUG start -9 and MT1-MMP act inh RFP 3.
`CCOc1ccc(NC(=S)NNC(=O)CC(C)O)cc1` (stereo unspecified) gave eIF4H FP inh 6, HIV Env fusion -1, PABP polyA inh -2, CSC inhib -12, MT1-MMP act inh 0 and MT1-MMP act inh RFP 3.
Screening CCN(CC)c1cc(Cl)c2nonc2c1N returned eIF4H FP inh -3, HIV Env fusion 6, Rce1 inhib inactive, PABP polyA inh -8, CSC inhib -5, MT1-MMP act inh -1, Yeast UUG start -9 and MT1-MMP act inh RFP -1.
For Cc1ccc(NC(=O)COC(=O)C(NS(=O)(=O)c2ccc(Cl)cc2)C(C)O)cc1 (stereo unspecified) the results were eIF4H FP inh 2, HIV Env fusion -24, Rce1 inhib inactive, PABP polyA inh 10, CSC inhib -13, MT1-MMP act inh 4 and MT1-MMP act inh RFP 1.
For CCC(=O)Nc1cccc(C2=NOC3(C2)C[C@@H](C(N)=O)N(C(=O)c2ccc(OC)cc2)C3)c1 (stereo partly specified) the results were eIF4H FP inh -5, HIV Env fusion inconclusive, Rce1 inhib inactive, PABP polyA inh -2, CSC inhib -12, MT1-MMP act inh 0, Yeast UUG start -5 and MT1-MMP act inh RFP 4.
COCc1cc(C)nc(N2CCc3ccccc32)c1C#N was read as eIF4H FP inh 9, HIV Env fusion -10, Rce1 inhib inactive, PABP polyA inh -1, CSC inhib -12, MT1-MMP act inh 3, Yeast UUG start -11 and MT1-MMP act inh RFP 0.
`COc1cc(C=NC2CCCCC2)ccc1O` gave HIV Env fusion -9, MT1-MMP act inh 4, Yeast UUG start -1 and MT1-MMP act inh RFP -2.
`Cc1cccc(Oc2ccc(NC(=O)C3=CC=CN4CCS(=O)(=O)N=C34)cc2)c1` gave HIV Env fusion 29, CSC inhib 2, MT1-MMP act inh 9, Yeast UUG start -11 and MT1-MMP act inh RFP -1.
COc1ccc(C(=O)Nc2ccc(Oc3nc(C)nc4sc(-c5ccccc5)cc34)cc2)cc1OC was read as eIF4H FP inh -6, HIV Env fusion -12, Rce1 inhib inactive, PABP polyA inh 0, CSC inhib 37, MT1-MMP act inh -5, Yeast UUG start -12 and MT1-MMP act inh RFP -7.
`Cc1cc2ccccn2c1C(=O)c1nc(N2CCOCC2)ncc1Cl` gave eIF4H FP inh -9, HIV Env fusion 7, Rce1 inhib inactive, PABP polyA inh -3, CSC inhib 2, MT1-MMP act inh 1, Yeast UUG start 0 and MT1-MMP act inh RFP -5.
Cc1ccc(NC(=O)CN2C(=O)COc3ccc(S(=O)(=O)N4CCOCC4)cc32)cc1N(C)C was read as HIV Env fusion -17, Rce1 inhib inactive, CSC inhib -30, MT1-MMP act inh 2, Yeast UUG start -13 and MT1-MMP act inh RFP 6.
Screening CCOc1cc(/C=C2/SC(=S)N(Cc3ccccc3)C2=O)ccc1O returned eIF4H FP inh -16, HIV Env fusion 11, Rce1 inhib inactive, PABP polyA inh -18, CSC inhib 76*, MT1-MMP act inh -32, Yeast UUG start -19 and MT1-MMP act inh RFP 51.
`CC(=O)c1ccc(NC(=O)CSc2nnc3ccc(-c4ccccn4)nn23)cc1` gave HIV Env fusion -41, Rce1 inhib inactive, CSC inhib 3, MT1-MMP act inh 2, Yeast UUG start -19 and MT1-MMP act inh RFP 4.
For O=C(CSc1nnc(-c2ccccc2Cl)o1)Nc1ccccn1 the results were eIF4H FP inh -3, HIV Env fusion 15, Rce1 inhib inactive, PABP polyA inh 0, CSC inhib 17, MT1-MMP act inh 2, Yeast UUG start -2 and MT1-MMP act inh RFP 6.
For CC(C(=O)NNS(=O)(=O)c1cccc(C(F)(F)F)c1)n1nnc(N2CCOCC2)n1 (stereo unspecified) the results were eIF4H FP inh -5, HIV Env fusion -9, PABP polyA inh -5, CSC inhib -15, MT1-MMP act inh -2 and MT1-MMP act inh RFP -1.
CC(=O)Nc1cccc(-c2csc(C(C)(O)c3ccc(F)c(F)c3)n2)c1 (stereo unspecified) was read as HIV Env fusion -12, MT1-MMP act inh 5, Yeast UUG start -6 and MT1-MMP act inh RFP -4.
Cc1c(/C=C(\C#N)c2nn(-c3ccccc3)c(N)c2C#N)c2ccccc2n1Cc1ccc(F)cc1 was read as eIF4H FP inh 52*, HIV Env fusion -34, Rce1 inhib inactive, PABP polyA inh 68*, CSC inhib -6, MT1-MMP act inh -3, Yeast UUG start -25 and MT1-MMP act inh RFP 0.
Screening O=C(O)CCCCCNC(=O)c1ccc(C(=O)NCCCCCC(=O)O)cc1 returned eIF4H FP inh -5, HIV Env fusion -2, Rce1 inhib inactive, PABP polyA inh 6, CSC inhib -22, MT1-MMP act inh 3, Yeast UUG start -15 and MT1-MMP act inh RFP 7.
Screening CC(=O)NC1=NC(=O)CS1 returned eIF4H FP inh -6, HIV Env fusion -54, Rce1 inhib inactive, PABP polyA inh -3, CSC inhib -1, MT1-MMP act inh -1, Yeast UUG start -4 and MT1-MMP act inh RFP 3.
c1ccc(-n2ncc3c(NCCN4CCCCC4)ncnc32)cc1 was read as eIF4H FP inh -17, Rce1 inhib inactive, PABP polyA inh 31, CSC inhib 14, MT1-MMP act inh 5, Yeast UUG start -11 and MT1-MMP act inh RFP 7.
CCCN(CCC)C(=O)c1oc2ccccc2c1NC(=O)Cc1cccc(OC)c1 was read as eIF4H FP inh 1, HIV Env fusion 20, Rce1 inhib inactive, PABP polyA inh 2, CSC inhib 13, MT1-MMP act inh -1, Yeast UUG start -6 and MT1-MMP act inh RFP 1.
CCOC(=O)c1c[nH]c(=S)n1C was read as eIF4H FP inh -2, HIV Env fusion -19, Rce1 inhib inactive, PABP polyA inh 5, CSC inhib -2, MT1-MMP act inh 3 and MT1-MMP act inh RFP 6.
`O=S(=O)(Nc1ccc(Cc2ccncc2)cc1)c1ccc(Cl)cc1` gave eIF4H FP inh 1, HIV Env fusion 4, Rce1 inhib inactive, PABP polyA inh 6, CSC inhib 28, MT1-MMP act inh -20 and MT1-MMP act inh RFP -24.
`O=c1cc(C23CC4CC(CC(C4)C2)C3)[nH][nH]1` gave eIF4H FP inh -2, Rce1 inhib inactive, PABP polyA inh 2, CSC inhib -7, MT1-MMP act inh 4, Yeast UUG start -20 and MT1-MMP act inh RFP 8.
CCC(C)Nc1ncnc2c1cnn2Cc1ccc(Cl)cc1 (stereo unspecified) was read as eIF4H FP inh 7, HIV Env fusion 6, Rce1 inhib inactive, PABP polyA inh -3, CSC inhib 9, MT1-MMP act inh 5, Yeast UUG start -11 and MT1-MMP act inh RFP -6.
Screening COc1cc(O)c(C(CCN2CCCCC2)c2cc(OC)c(OC)c(OC)c2)c(OC)c1 (stereo unspecified) returned eIF4H FP inh 4, HIV Env fusion -17, Rce1 inhib inactive, PABP polyA inh 8, CSC inhib 5, MT1-MMP act inh -1, Yeast UUG start -10 and MT1-MMP act inh RFP 5.
Screening Cc1ccc(C)c(CN2CCCN(C(=O)Cn3ncc4c3-c3ccccc3OC4)C2)c1 returned eIF4H FP inh 14, HIV Env fusion 29, Rce1 inhib inactive, PABP polyA inh -5, CSC inhib -8, MT1-MMP act inh -2, Yeast UUG start -9 and MT1-MMP act inh RFP -4.
`Cc1onc(-c2ccccc2)c1-c1nnc(CN2CCN(S(=O)(=O)c3ccccc3F)CC2)o1` gave CSC inhib 10, MT1-MMP act inh -2, Yeast UUG start -4 and MT1-MMP act inh RFP -15.
